FPR binding: small-molecule ligands of human FPR – U937-FPR cells, fMLFK-FITC, flow cytometry, primary screen (AID 362). inhibition, %. U937-FPR cells, fMLFK-FITC displacement, flow cytometry; active compounds read high; test concentration not given here; most inactive calls were filed without a number and no value below 0 was filed. actives 1% (n = 4,300);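 active = inhibition of labelled peptide binding to the formyl peptide receptor of at least 65%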;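 note: plate controls were buffer control wells for no effect and unlabeled fMLFF blocking peptide for full effect; higher means less cell fluorescence so more probe displaced; part of the set was picked by virtual screening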
Starred values were filed as active, the others as inactive; i = inactive. An excerpt. The share of hits here may be higher or lower than overall.

SMILES	FPR binding
CCCCCCOC(=O)C1=C(C)NC(=O)NC1c1ccc(OCCC)cc1 (stereo unspecified)	i
CN(C)c1ccc(-c2nc3ccccc3n2-c2cc(C(C)(C)C)c(O)c(C(C)(C)C)c2)cc1	i
CC1CCN(S(=O)(=O)N2CCC(C(=O)N3CCC4(CC3)OCCO4)CC2)CC1	i
Cc1cccc(Oc2c(C(F)(F)F)oc3c(CN4CCCCC4)c(O)ccc3c2=O)c1	10
CCOC(=O)NC(Nc1sc2c(c1C(=O)OC)CCC2)(C(F)(F)F)C(F)(F)F	4
COc1ccc(NC(=O)CCCCCn2c(SCC(=O)Nc3ccc(OC)cc3OC)nc3ccsc3c2=O)cc1	i
Cc1ccc(C(=O)C2C(c3ccc(-c4ccccc4[N+](=O)[O-])o3)NC(=O)NC2(O)C(F)(F)F)cc1 (stereo unspecified)	i
CC1=C(C(=O)OC2CCCC2)C(c2ccc(C)c([N+](=O)[O-])c2)C2=C(CC(c3cccs3)CC2=O)N1 (stereo unspecified)	i
O=S(=O)(NC1CCCCC1Sc1ncccn1)c1ccc(Cl)cc1 (stereo unspecified)	i
CC(C)(C)c1cc(C(N2CCCCC2)P(=O)(c2ccccc2)c2ccccc2)cc(C(C)(C)C)c1O (stereo unspecified)	13
CCOC(=O)c1cc2c(=O)n3ccccc3nc2n(CC(C)C)c1=NC(=O)c1ccccc1[N+](=O)[O-]	26
NC(=O)CSc1nc2cc3c(cc2c(=O)n1CCCCCC(=O)NCc1ccc2c(c1)OCO2)OCO3	i

The list goes on; it opens with the 7 that closed the last part.
SMILES	FPR binding
COc1ccc(NC(=O)CCCCCn2c(SCC(=O)Nc3ccc(OC)cc3OC)nc3ccsc3c2=O)cc1	i
Cc1ccc(C(=O)C2C(c3ccc(-c4ccccc4[N+](=O)[O-])o3)NC(=O)NC2(O)C(F)(F)F)cc1 (stereo unspecified)	i
CC1=C(C(=O)OC2CCCC2)C(c2ccc(C)c([N+](=O)[O-])c2)C2=C(CC(c3cccs3)CC2=O)N1 (stereo unspecified)	i
O=S(=O)(NC1CCCCC1Sc1ncccn1)c1ccc(Cl)cc1 (stereo unspecified)	i
CC(C)(C)c1cc(C(N2CCCCC2)P(=O)(c2ccccc2)c2ccccc2)cc(C(C)(C)C)c1O (stereo unspecified)	13
CCOC(=O)c1cc2c(=O)n3ccccc3nc2n(CC(C)C)c1=NC(=O)c1ccccc1[N+](=O)[O-]	26
NC(=O)CSc1nc2cc3c(cc2c(=O)n1CCCCCC(=O)NCc1ccc2c(c1)OCO2)OCO3	i
COc1ccc(/C=C2\CCCC3=C2Nc2nnnn2C3c2ccc(OC)cc2)cc1 (stereo unspecified)	i
CC(=O)Nc1ccc(S(=O)(=O)NCC2CCC(C(=O)NCc3ccc(Cl)cc3)CC2)cc1 (stereo unspecified)	i
COc1cc(C2C3=C(CC(C)(C)CC3=O)OC3=C2C(=O)CC(C)(C)C3)ccc1OC(=O)c1cccc(C)c1	12
COC(=O)C1C(=O)C2=C(CC1C)NC(C)=C(C(=O)OC1CCCCCC1)C2c1cccc(OC)c1 (stereo unspecified)	3
CCOC(=O)C(C(=O)Nc1ncccn1)C1CCCCC1 (stereo unspecified)	13
CC1=C(C(=O)OC(C)C)C(c2ccccc2C(F)(F)F)CC(=O)N1 (stereo unspecified)	i
CC1(C)CC(=O)C2=C(C1)Nc1nnnn1C2c1ccccc1F (stereo unspecified)	8
CC1=C(C(=O)OC2CCCC2)C(c2ccncc2)C2=C(CCCC2=O)N1 (stereo unspecified)	i
O=C(NC1CCCCCCC1)C1CCC(CNS(=O)(=O)c2ccccc2)CC1 (stereo unspecified)	i
CCCCCn1c(CN2CCN(c3ccc(OC)cc3)CC2)nc2c1c(=O)n(C)c(=O)n2C	i
COc1ccc([N+](=O)[O-])cc1NC(=O)Cn1cc(S(=O)(=O)N2CCC(C)CC2)c2ccccc2c1=O	6
COC(=O)NC(Nc1sc2c(c1C(N)=O)CCCC2)(C(=O)OC)C(F)(F)F (stereo unspecified)	i
Cc1cc(C(F)(F)F)n2nc(C(=O)O)cc2n1	i
COCCOC(=O)C1=C(N)OC2=C(C(=O)CC(C)(C)C2)C1c1ccc(F)cc1 (stereo unspecified)	i
Cc1ccc(NC(=O)CSc2c3c(nc4ccccc24)CCCC3)cc1F	i
CCOC(=O)C1CCN(C(=O)c2cn(CC(C)C)c(=O)c3cc(OC)c(OC)cc23)CC1	11
CC1(C)CC(=O)c2cn(-c3ccc(Cl)cc3)c(=N)c(C#N)c2C1	i
COc1ccc2c(=O)c(-c3cscn3)c(C(F)(F)F)oc2c1	i
CCCCn1c(SCC(=O)NCCc2ccc(S(N)(=O)=O)cc2)nc2ccsc2c1=O	i
Cc1ccc(-c2nn(-c3ccccc3)cc2C=C2C(=O)CC(C)(C)CC2=O)cc1	i
NC(=O)C1CCN(C(=O)CSc2c3c(nc4ccccc24)CCCC3)CC1	i
CCCCCOC(=O)c1c(C)oc2ccc(NS(=O)(=O)c3ccc4c5c(cccc35)C(=O)N4)cc12	3
COC(=O)C1C(=O)C2=C(CC1C)NC(C)=C(C(=O)OC1CCCCCC1)C2c1ccc(C)cc1 (stereo unspecified)	i
CN(c1ccccc1)C(C(=O)NC1CCCC1)c1cc2c(cc1[N+](=O)[O-])OCO2 (stereo unspecified)	i
C=CCc1cc(C(=O)N2CCOCC2)ccc1O	6
CCOC(=O)c1cc2c(=O)n3ccccc3nc2n(CC(C)C)c1=NC(=O)c1c(OCC)ccc2ccccc12	i
CC(C)CCNC(=O)CSc1nc2ccccc2c(=O)n1CC1CCC(C(=O)NCCc2ccccc2)CC1 (stereo unspecified)	i
CCCCNC(=O)CSc1nc2cc3c(cc2c(=O)n1CCCCCC(=O)NCc1ccc(OC)cc1)OCO3	i
COc1ccc(C2C(C(=O)OCC(C)C)=C(C)NC3=C2C(=O)CC(c2ccccc2)C3)cc1 (stereo unspecified)	26
COc1cc(C2NC(=O)NC(C)=C2C(=O)OC2CCCCCC2)ccc1O (stereo unspecified)	i
Cc1cccc(Oc2c(C(F)(F)F)oc3c(CN4CCCC4)c(O)ccc3c2=O)c1	i
COC(=O)C1C(=O)C2=C(CC1C)NC(C)=C(C(=O)OC(C)C)C2c1ccc(C)cc1 (stereo unspecified)	7
CCOC(=O)C(C(C)CC)N(Cc1cccc(C)c1)S(=O)(=O)c1ccc([N+](=O)[O-])cc1 (stereo unspecified)	1
CCc1ccc(N(CC)C(=O)c2cn(CC(C)C)c(=O)c3cc(OC)c(OC)cc23)cc1	18
O=S(=O)(NC1CCCC1)c1cccc2nsnc12	i
COC(=O)c1c(NC(=O)C2C3C=CC(C3)C2C(=O)O)sc2c1CCC(C)C2 (stereo unspecified)	i

3 entries already listed, arranged by their value in FPR binding, high to low:
SMILES	FPR binding
CCc1ccc(N(CC)C(=O)c2cn(CC(C)C)c(=O)c3cc(OC)c(OC)cc23)cc1	18
COC(=O)C1C(=O)C2=C(CC1C)NC(C)=C(C(=O)OC(C)C)C2c1ccc(C)cc1 (stereo unspecified)	7
C=CCc1cc(C(=O)N2CCOCC2)ccc1O	6

The results go on.
SMILES	FPR binding
O=C(c1cc(S(=O)(=O)N2CCOCC2)ccc1F)N1CCCCC1	i
CC1=CC(C)C2(COC(=O)NC3CCCCC3)COC(c3ccc4c(c3)OCO4)C1C2C (stereo unspecified)	i
COC(=O)C1=C(N)OC2=C(C(=O)CC(C)(C)C2)C1c1cccc(C)c1 (stereo unspecified)	i
COC(=O)c1nc2nc(C)cc(C(F)(F)F)n2n1	i
CCCCc1cc2c(=O)c(-c3ccccn3)coc2cc1O	i
COC(=O)C1C(=O)C2=C(CC1C)NC(C)=C(C(=O)OC(C)C)C2c1ccc(O)c(OC)c1 (stereo unspecified)	16
COC(=O)c1c(NC(=O)C(C(C)C)N2C(=O)c3ccccc3C2=O)sc2c1CCC2 (stereo unspecified)	i
CC(=O)c1cccc(N2C(=O)C3C4CCC(C4)C3C2=O)c1 (stereo unspecified)	i
Cn1c2ccccc2c2c(C(=O)N3CCN(c4ccc([N+](=O)[O-])cc4)CC3)cn(C3CCCC3)c(=O)c21	i
COCCOC(=O)C1=C(N)OC2=C(C(=O)CC(C)(C)C2)C1c1ccccc1 (stereo unspecified)	8
COc1ccc(C2NC(CC(C)C)(C(=O)O)C3C(=O)N(c4ccccc4OC)C(=O)C23)c(OC)c1 (stereo unspecified)	8
CCCCCCCC1C(C#N)=C(N)OC2=C1C(=O)CC(C)(C)C2 (stereo unspecified)	13
CCOC(=O)C1=C(C)NC2=C(C(=O)C(C(=O)OC)C(C)C2)C1c1cc(Br)c(O)c(OC)c1 (stereo unspecified)	10
CC(C)Cn1cc(C(=O)N2CCN(c3ccccc3)CC2)c2c3ccccc3n(C)c2c1=O	i
COc1ccc2c(=O)c(Oc3cccc(C)c3)c(C(F)(F)F)oc2c1	i
COc1ccc(-c2csc(NC(=O)C3C4CCC(C4)C3C(=O)O)n2)cc1 (stereo unspecified)	21
CCC(C)OC(=O)C1=C(C)NC2=C(C(=O)C(C(=O)OC)C(C)C2)C1c1cc(Cl)c(O)c(OC)c1 (stereo unspecified)	i
CCOC(=O)c1cc2c(=O)n3ccccc3nc2n(CC(C)C)c1=NC(=O)c1cccc(OC)c1	i
O=C(CSc1c2c(nc3ccccc13)CCCC2)Nc1ccc(F)cc1	i
COc1ccc2nc(NC(=O)C3CC=C(C)CC3C(=O)O)sc2c1 (stereo unspecified)	3
CCCCOc1cc(OCCCC)c2c3c(c(=O)oc2c1)CCC3	93*
CCC(=O)Oc1ccc2c(C(F)(F)F)cc(=O)oc2c1C	i
O=C1Nc2c(c(=O)[nH]c(=O)n2Cc2ccccc2)C1(NS(=O)(=O)c1ccccc1)C(F)(F)F (stereo unspecified)	20
O=C(NCCN1CCOCC1)C1CCC(CNS(=O)(=O)c2ccc(F)cc2)CC1 (stereo unspecified)	i

Compounds shown so far that have a tert-butyl group:
SMILES	FPR binding
CN(C)c1ccc(-c2nc3ccccc3n2-c2cc(C(C)(C)C)c(O)c(C(C)(C)C)c2)cc1	i
CC(C)(C)c1cc(C(N2CCCCC2)P(=O)(c2ccccc2)c2ccccc2)cc(C(C)(C)C)c1O (stereo unspecified)	13

Further records
SMILES	FPR binding
CC(=O)Oc1ccc2c(=O)c(Oc3ccccc3)c(C(F)(F)F)oc2c1	98*
Cn1c2ccccc2c2c(C(=O)N3CCN(Cc4ccccc4)CC3)cn(C3CCCC3)c(=O)c21	i
COc1cc(C2C(C(=O)OC3CCCCCC3)=C(C)NC3=C2C(=O)CC(C)(C)C3)cc([N+](=O)[O-])c1O (stereo unspecified)	60
CCOC(=O)C1=C(C)OC(N)=C(C#N)C1C1CC=CCC1 (stereo unspecified)	i
CCCC(=O)Oc1ccc(C2C(C(=O)OCC)=C(N)OC3=C2C(=O)CC(C)(C)C3)cc1 (stereo unspecified)	i
CCCCCCCOC(=O)C1=C(C)NC(=O)NC1c1ccc(OC)c(OC)c1 (stereo unspecified)	4
COc1cc(C2NC(=O)NC(C)=C2C(=O)OC2CCCCC2)cc(Cl)c1O (stereo unspecified)	i
CC(C)Cn1c(CN2CC(C)OC(C)C2)nc2c1c(=O)n(C)c(=O)n2C (stereo unspecified)	i
CC(C)C(C(=O)O)N1C(=O)/C(=C2/C(=O)N(C)c3ccccc32)SC1=S (stereo unspecified)	94*
CCCCCCOC(=O)C1=C(C)NC(=O)NC1c1cccc(OC)c1OC (stereo unspecified)	10
O=C(OCc1ccccc1)c1cccc(N2C(=O)C3C4CCC(C4)C3C2=O)c1 (stereo unspecified)	9
C=CCc1cc(/C=C2\C(=O)NC(=O)N(c3ccccc3CC)C2=O)cc(OC)c1OCC(=O)O	i
Cc1cc2c(c(=O)o1)C(C1CCCCC1)C(C#N)=C(N)O2 (stereo unspecified)	i
COCCNC(=O)c1cn(CC(C)C)c(=O)c2c1c1ccccc1n2C	0
CCSCCOC(=O)C1=C(C)NC2=C(C(=O)C(C(=O)OC)C(C)C2)C1c1cccc([N+](=O)[O-])c1 (stereo unspecified)	8
CC1(C)CC(=O)C=C(NCCN2CCN(C(=O)Nc3ccc(Cl)cc3)CC2)C1	6
O=C1C2C3C=CC(C3)C2C(=O)N1c1cccc(O)c1 (stereo unspecified)	i
COC(=O)C1C(=O)C2=C(CC1C)NC(C)=C(C(=O)OC1CCCC1)C2c1cccs1 (stereo unspecified)	10
O=C(COc1ccc(Cl)cc1)Oc1ccc2c3c(c(=O)oc2c1)CCC3	30
CC(C)COC(=O)c1ccc2c(c1)C1C=CCC1C(C(=O)O)N2 (stereo unspecified)	22
Cc1cccc(NC(=O)C(NS(=O)(=O)c2cccs2)C(C)C)n1 (stereo unspecified)	1
COC(=O)C1C(=O)C2=C(CC1C)NC(C)=C(C(=O)OCCOC(C)C)C2c1ccc(F)cc1 (stereo unspecified)	14
O=C(Oc1cccc(N2C(=O)C3C4CCC(C4)C3C2=O)c1)c1ccc([N+](=O)[O-])cc1 (stereo unspecified)	39
COC(=O)C1C(=O)C2=C(CC1C)NC(C)=C(C(=O)OC1CCCCCC1)C2c1ccc(C)s1 (stereo unspecified)	i
COc1cc([C@@H]2Nc3ccc(S(=O)(=O)Nc4ccccc4F)cc3[C@@H]3C=CC[C@@H]32)cc(OC)c1OC	i
CCOC(=O)C1CCC(CN(Cc2ccc(OC)cc2)S(=O)(=O)c2ccc(C(C)(C)C)cc2)CC1 (stereo unspecified)	i
O=C(NC1CCCC1)C1CCC(CNS(=O)(=O)c2ccccc2)CC1 (stereo unspecified)	i
CCSc1ccsc1C1C(C#N)=C(N)N(c2cccnc2)C2=C1C(=O)CC(C)(C)C2 (stereo unspecified)	32
CCOC(=O)c1cc2c(=O)n3ccccc3nc2n(CC(C)C)c1=NC(=O)c1ccc(C)c(C)c1	i
CC(=O)Oc1ccc2c(c1)C(C)=CC(C)(C)N2C(C)=O	i
COCCOC(=O)C1=C(C)NC2=C(C(=O)C(C(=O)OC)C(C)C2)C1c1ccc(N(C)C)cc1 (stereo unspecified)	64
COc1cc(C2C(C#N)=C(N)N(c3ncn[nH]3)C3=C2C(=O)CC(C)(C)C3)cc(OC)c1OC (stereo unspecified)	i
CC1(C)CC(=O)C2=C(C1)Nc1[nH]n(-c3ccccc3)c(=O)c1C2c1ccc(F)cc1 (stereo unspecified)	48
O=C1C2C3C=CC(CC3)C2C(=O)N1c1cc([N+](=O)[O-])ccc1Cl (stereo unspecified)	0
O=C(CSc1nc2ccccc2c(=O)n1CC1CCC(C(=O)NCC2CCCO2)CC1)NC1CCCC1 (stereo unspecified)	i

Screens from PubChem.
